Screening results from PubChem.
CDC25B-CDK2 inh: human CDC25B-CDK2/CyclinA binding inhibition | z-score (concentration not given with the values) | HTRF CDC25B-CDK2/CyclinA binding, anti-His/anti-Flag; stronger effect = higher value | AID 1259370 | P30305+P24941 | 0.72% of 94,000 active;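 also: score is relative to mean and SD of negative controls; strong numbers were not always called active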
TAR Tat displ: HIV-1 TAR-Tat binding disruption. AID 1259389. 0.6% of 100,000 active. HIV-1 TAR RNA, Tat peptide displacement FRET; stronger effect = higher value. z-score (no concentration beside the values);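 also: score is relative to mean and SD of negative controls; some compounds called inactive have numbers as strong as hits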
The depositor's hits bear a star.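 The calls were made as follows: active = z-score from 3 up in half or more of its runs; inactive = the rest.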

For CCn1nc(-c2ccccn2)nc2c(=O)n(C)c(=O)nc1-2 the results were CDC25B-CDK2 inh -2.32 and TAR Tat displ -2.04.
Screening CCOc1cc(C2CC(=O)Nc3c2c(=O)nc(SCc2ccc(C)cc2)n3C)ccc1O (configuration not stated) returned CDC25B-CDK2 inh -0.73 and TAR Tat displ 0.
Screening Cc1ccc(CNS(=O)(=O)c2ccc3c(c2)oc(=S)n3C)cc1 returned TAR Tat displ -0.04.
Screening Clc1cccc(CN2CCN(C3CCN(Cc4ccccc4)CC3)CC2)c1 returned CDC25B-CDK2 inh -0.12 and TAR Tat displ 0.96.
COc1ccccc1N1CCN(S(=O)(=O)c2cc(Br)cnc2N)CC1 was read as CDC25B-CDK2 inh -1.54 and TAR Tat displ 0.52.
`COC(=O)c1nnn(-c2cccc(F)c2)c1C(=O)OC` gave CDC25B-CDK2 inh -2.94 and TAR Tat displ 1.95.
For CC1(C)C(=O)Nc2ccc(S(=O)(=O)Nc3ccc(Cl)cc3)cc21 the results were TAR Tat displ 0.26.
Screening Cc1sc2ncnc(NCc3ccccc3Cl)c2c1C returned CDC25B-CDK2 inh -4.33 and TAR Tat displ -1.05.
COc1ccc(F)cc1S(=O)(=O)N1CCCN(S(=O)(=O)c2cc(F)ccc2OC)CC1 was read as CDC25B-CDK2 inh 0.32.
CCSc1nnc2c(n1)OC(C)=Nc1ccc(Br)cc1-2 was read as CDC25B-CDK2 inh -0.66 and TAR Tat displ 0.39.
`CCC(COc1nnnc2ccccc12)NC(=O)Nc1ccc(OC)cc1` (configuration not stated) gave CDC25B-CDK2 inh 2.66 and TAR Tat displ 0.28.
Screening COc1ccc(S(=O)(=O)c2cnc3cc4c(cc3c2N2CCCC2)OCCO4)cc1 returned CDC25B-CDK2 inh -2.04 and TAR Tat displ 1.17.
Screening O=C(CSc1ccc(C(F)(F)F)cn1)Nc1cccc2nsnc12 returned CDC25B-CDK2 inh -0.63.
For O=C(NC1CCCC1)c1cnn2c3c(cnc12)CCCCCC3 the results were TAR Tat displ -0.25.
CCS(=O)(=O)c1ccc(O)c(Nc2cc(-c3ccccc3)ncn2)c1 was read as CDC25B-CDK2 inh -2.45 and TAR Tat displ 1.92.
For O=C(c1ccc(S(=O)(=O)Nc2ccccc2)s1)N1CCCC1 the results were TAR Tat displ 1.01.
For CC1CC(=O)Nc2cc(S(=O)(=O)N3CCOCC3)ccc2S1 (configuration not stated) the results were TAR Tat displ 1.47.
For O=C(Nc1cccc(F)c1)C1=Cc2cc(Br)ccc2OC=C1 the results were CDC25B-CDK2 inh -1.11 and TAR Tat displ 1.06.
For CCN1CCCC1CNC(=O)C1=C(C)C(=O)OC12CCN(C(C)=O)CC2 (configuration not stated) the results were TAR Tat displ 0.7.
`COc1ccc(-c2nnc3c4cc5c(cc4n(Cc4cccc(F)c4)cc2-3)OCO5)cc1` gave CDC25B-CDK2 inh 1.31 and TAR Tat displ -0.74.
Screening CN1CCN(c2nnc(-n3cccc3CNCc3ccccc3)s2)CC1 returned TAR Tat displ 0.81.
`CN1C(=O)c2ccccc2Sc2ccc(NC(=O)NCc3ccccc3Br)cc21` gave CDC25B-CDK2 inh 0.99 and TAR Tat displ 0.06.
`c1ccc(CN2c3nnnn3C(c3ccccc3)CC2c2cccs2)cc1` (configuration not stated) gave CDC25B-CDK2 inh 1.03 and TAR Tat displ -0.88.
`O=C(CSCc1ccco1)Nc1c(F)c(F)c(F)c(F)c1F` gave CDC25B-CDK2 inh -0.92.
Screening CCOc1c(Nc2ccc(F)c(F)c2)c(=O)c1=O returned TAR Tat displ 2.13.
`CCC(Sc1nc2ccccc2c2nc3ccccc3n12)C(=O)N1CCOCC1` (configuration not stated) gave CDC25B-CDK2 inh -1.21.
`Fc1ccc2c(c1)[C@@H]1C=CC[C@@H]1[C@H](c1ccccc1Cl)N2` gave CDC25B-CDK2 inh -0.62.
Cn1c(SCC(=O)c2ccc(Cl)cc2)nnc1-c1cccs1 was read as TAR Tat displ 1.86.
`O=C(NCCSCc1ccc(Cl)cc1)c1c(F)cccc1F` gave CDC25B-CDK2 inh -2.28.
For NC(=O)c1nc(-c2ccccc2Br)nc2c1[nH]c(=O)n2-c1ccc(F)cc1 the results were TAR Tat displ 1.19.
Screening Cc1nnc2c(NCc3ccncc3)nc3ccc(C(=O)c4ccccc4)cc3n12 returned TAR Tat displ -0.47.
`CC1=C(c2ccccc2)S(=O)(=O)N=C1N1CCN(Cc2ccccc2)CC1` gave CDC25B-CDK2 inh -1.44 and TAR Tat displ 1.49.
`Cn1c(=O)c2c(SCC(=O)N3CCc4ccccc43)nc(-c3ccc(Cl)cc3)nc2n(C)c1=O` gave TAR Tat displ 0.36.
CC1Sc2ccc(S(=O)(=O)NC3CCCc4ccccc43)cc2NC1=O (configuration not stated) was read as TAR Tat displ 1.3.
Screening O=C(C1=C(O)C(=O)N(CCN2CCOCC2)C1c1ccncc1)c1cccs1 (configuration not stated) returned CDC25B-CDK2 inh -1.28 and TAR Tat displ -0.39.
Screening COc1ccc(-c2cc(C(F)F)n3ncc(C(=O)N4CCc5ccccc54)c3n2)cc1 returned CDC25B-CDK2 inh 0.85 and TAR Tat displ 2.21.
For CC(C)S(=O)(=O)c1cnc(-c2ccccn2)nc1N the results were CDC25B-CDK2 inh -1.52.
O=C(NCCN1CCOCC1)c1cc2c(s1)-c1ccccc1S(=O)(=O)C2 was read as CDC25B-CDK2 inh -2.52 and TAR Tat displ 3.45.
CC1(C(=O)NC2CCCCC2)Cn2c(ccc2-c2ccco2)C(=O)N1CCN1CCCC1 (configuration not stated) was read as TAR Tat displ -0.19.
O=C(Nc1nc(-c2nc3ccccc3s2)cs1)c1ccc2ncsc2c1 was read as TAR Tat displ 1.78.
Screening COCCCn1c2c(c(=O)[nH]c1=O)C(c1ccc(SC)cc1)C1=C(N2)c2ccccc2C1=O (configuration not stated) returned CDC25B-CDK2 inh -2.39 and TAR Tat displ -8.52.
For CCOC(=O)c1sc2nc(C)nc(Oc3cccnc3)c2c1C the results were TAR Tat displ 2.09.
Screening CC1CCC(NC(=O)c2ccc(CS(=O)c3ccc(Br)cc3)o2)CC1 (configuration not stated) returned CDC25B-CDK2 inh -2.63 and TAR Tat displ -0.66.
COCCN(CCS(=O)(=O)N1CCNCC1)S(=O)(=O)c1ccc(OC)cc1 was read as TAR Tat displ 0.48.
`Cc1nc(N)c(S(=O)(=O)c2ccccc2)c(Nc2ccc(Br)cc2)n1` gave CDC25B-CDK2 inh -2.4 and TAR Tat displ 0.8.
For CC1=C(c2cccc(Br)c2)S(=O)(=O)NC1=NCCc1ccccc1 the results were CDC25B-CDK2 inh -3.12 and TAR Tat displ -0.74.
Screening COc1ccc(S(=O)(=O)NCc2ccc3c(c2)OCO3)cc1OC returned CDC25B-CDK2 inh -0.97 and TAR Tat displ 0.67.
Screening CC1CCC(NC(=O)C2CCN(S(=O)(=O)c3ccc4c(c3)CCCC(=O)N4)CC2)CC1 (configuration not stated) returned TAR Tat displ 0.8.
N#Cc1cc(Oc2cccnc2)c(Oc2cccnc2)cc1C#N was read as CDC25B-CDK2 inh -1.89.
COc1ccc(/C=N/N2CCOCC2)cc1CSc1nc2ccccc2s1 was read as CDC25B-CDK2 inh -1.43.
For c1ccc(C2C3=C(CCCC3)Nc3nc4ccccc4n32)cc1 (configuration not stated) the results were CDC25B-CDK2 inh -0.91 and TAR Tat displ 0.71.
`C1=C(N2CCC(Cc3ccccc3)CC2)CCc2ccccc21` gave CDC25B-CDK2 inh -1.61.
`Cc1ccc(C2=N/C(=C\c3cccs3)C(=O)O2)cc1[N+](=O)[O-]` gave CDC25B-CDK2 inh -1.34.
`O=C(CC1(O)C(=O)Nc2ccc(Br)cc21)c1ccccc1Cl` (configuration not stated) gave TAR Tat displ 2.14.
COc1ccc(-c2n[nH]c3c2C(c2ccc(OC)c(OC)c2)NC3=O)cc1 (configuration not stated) was read as TAR Tat displ 1.95.
CCCCCOC(=O)C1=C(C)Nc2ncnn2C1c1ccc(Cl)cc1 (configuration not stated) was read as CDC25B-CDK2 inh -0.18 and TAR Tat displ -1.02.
CC1(C)CC(NC(=O)CNc2ccccc2)CC(C)(C)N1 was read as CDC25B-CDK2 inh -0.92.
`CCN(CC)C(=O)CN(C#N)c1nc(C)cc(C)n1` gave CDC25B-CDK2 inh -0.92 and TAR Tat displ 0.64.
For O=C(Nc1nnc(Cc2nc3ccccc3[nH]2)s1)c1cccs1 the results were CDC25B-CDK2 inh -1.74 and TAR Tat displ 2.02.
Screening CCOC(=O)N1CCC(Nc2c(Nc3ccc(OC)cc3)c(=O)c2=O)CC1 returned CDC25B-CDK2 inh -1.9 and TAR Tat displ 2.26.

Two successive compounds out of the list so far:
Screening COCCCn1c2c(c(=O)[nH]c1=O)C(c1ccc(SC)cc1)C1=C(N2)c2ccccc2C1=O (configuration not stated) returned CDC25B-CDK2 inh -2.39 and TAR Tat displ -8.52.
For CCOC(=O)c1sc2nc(C)nc(Oc3cccnc3)c2c1C the results were TAR Tat displ 2.09.

Further results follow:
Screening COc1nc(C)ccc1-c1noc(-c2cccc(C)c2)n1 returned CDC25B-CDK2 inh 0.5 and TAR Tat displ 0.06.
`COc1cc(NS(=O)(=O)c2cc(-c3noc(C)n3)cs2)cc(OC)c1` gave TAR Tat displ 0.69.
For COc1ccc(Cc2nc3c4c(C)c(C)n(-c5ccc(C)cc5C)c4ncn3n2)cc1OC the results were CDC25B-CDK2 inh 0.92 and TAR Tat displ 0.15.
`CC1CN(Cc2nc3c(c(=O)[nH]c(=O)n3C)n2Cc2ccc(F)cc2)CC(C)O1` (configuration not stated) gave CDC25B-CDK2 inh -1.19 and TAR Tat displ -0.58.
For O=S(=O)(NC1=NCC2CCCC2N1)c1ccccc1 (configuration not stated) the results were CDC25B-CDK2 inh -1.63.
Screening COc1ccc(-c2nnc(C3CCN(S(=O)(=O)c4ccc5c(c4)CCCC5)CC3)o2)cc1 returned CDC25B-CDK2 inh 0.01 and TAR Tat displ 0.75.
For Cc1cc(C)n2nc(NCc3ccccc3Cl)nc2n1 the results were CDC25B-CDK2 inh -0.55 and TAR Tat displ 1.21.
`CCN1CCN(c2ncc3c(n2)CCN(Cc2ccc(C)c(C)c2)C3)CC1` gave TAR Tat displ 1.38.
For Cc1cc(=O)n2[nH]c(NCc3ccc(Br)cc3)nc2n1 the results were CDC25B-CDK2 inh -0.45 and TAR Tat displ 2.07.
`CSc1cccc(NC(=O)Cn2c(=O)c3ccccc3n3nncc23)c1` gave CDC25B-CDK2 inh -0.14 and TAR Tat displ 0.33.
For O=C(Nc1cccc2cccnc12)c1ccc(N2C(=O)[C@@H]3[C@H](C2=O)[C@@H]2C=C[C@H]3C2)cc1 the results were TAR Tat displ 1.13.
Cc1cc(C)nc(SCCn2c(N3CCCCC3)nc3c2c(=O)[nH]c(=O)n3C)n1 was read as CDC25B-CDK2 inh -1.11 and TAR Tat displ 2.05.
For CC1(C)C(=O)OC(C(=O)c2ccc(-c3ccccc3)cc2)C(C)(C)C1=O (configuration not stated) the results were CDC25B-CDK2 inh -0.89 and TAR Tat displ 0.79.
`CCOCCCNC(=O)c1cc2c(s1)-c1ccsc1CC2` gave TAR Tat displ 2.12.
Screening Cc1cc2nc(CSc3ccccc3NC(=O)CC(C)C)cc(=O)n2o1 returned TAR Tat displ 0.5.
CCc1cc2c(cc3c(=O)n(CC(=O)N4CCCCCC4)nc(CC)n32)s1 was read as CDC25B-CDK2 inh -1.88.
COc1cc2nc(SCC(=O)Nc3c(C)cc(C)cc3C)n3nc(C)nc3c2cc1OC was read as CDC25B-CDK2 inh -0.93.
CCn1ncc(C2=NOC(C(=O)Nc3cc(C)on3)C2)c1C (configuration not stated) was read as CDC25B-CDK2 inh 1.2 and TAR Tat displ 1.33.
For CCOc1ccc(NC(=O)Nc2c(C3=CCCCC3)c(C)nn2C)cc1 the results were CDC25B-CDK2 inh -1.53 and TAR Tat displ 0.5.
COC(=O)c1ccc(C2CC(=O)Nc3c2c(C)nn3-c2nc(C)cc(C)n2)cc1 (configuration not stated) was read as CDC25B-CDK2 inh 0.06 and TAR Tat displ 0.75.

Two entries drawn at random from those above:
O=C(Nc1nc(-c2nc3ccccc3s2)cs1)c1ccc2ncsc2c1 was read as TAR Tat displ 1.78.
COC(=O)c1ccc(C2CC(=O)Nc3c2c(C)nn3-c2nc(C)cc(C)n2)cc1 (configuration not stated) was read as CDC25B-CDK2 inh 0.06 and TAR Tat displ 0.75.

Six entries already listed, arranged by number of heavy atoms, lowest first.
For Cc1cc(=O)n2[nH]c(NCc3ccc(Br)cc3)nc2n1 the results were CDC25B-CDK2 inh -0.45 and TAR Tat displ 2.07.
`CCOCCCNC(=O)c1cc2c(s1)-c1ccsc1CC2` gave TAR Tat displ 2.12.
For CCOc1ccc(NC(=O)Nc2c(C3=CCCCC3)c(C)nn2C)cc1 the results were CDC25B-CDK2 inh -1.53 and TAR Tat displ 0.5.
`CCN1CCN(c2ncc3c(n2)CCN(Cc2ccc(C)c(C)c2)C3)CC1` gave TAR Tat displ 1.38.
For O=C(Nc1cccc2cccnc12)c1ccc(N2C(=O)[C@@H]3[C@H](C2=O)[C@@H]2C=C[C@H]3C2)cc1 the results were TAR Tat displ 1.13.
COc1cc2nc(SCC(=O)Nc3c(C)cc(C)cc3C)n3nc(C)nc3c2cc1OC was read as CDC25B-CDK2 inh -0.93.

(listing goes on)
`COc1ccc2nc(C)cc(-n3nc(C)cc3C)c2c1` gave CDC25B-CDK2 inh 0.67 and TAR Tat displ -0.16.
CCCS(=O)(=O)c1nc(S(=O)(=O)c2ccc(C)cc2)c(NCCN(C)C)s1 was read as CDC25B-CDK2 inh -0.46 and TAR Tat displ 0.03.
Screening CCc1ccc(CN(C(=O)c2cc(=O)c3cc(C)c(C)cc3o2)C2CCS(=O)(=O)C2)cc1 (configuration not stated) returned CDC25B-CDK2 inh -0.85 and TAR Tat displ 0.1.
For N#Cc1c(N)nc2c3c1NC(O)(c1ccccc1)C(C#N)C3c1cc(Cl)ccc1O2 (configuration not stated) the results were CDC25B-CDK2 inh -3.13.
For Cc1nc2nc(NCc3cccs3)[nH]n2c(=O)c1CCC(=O)N1CCCCC1C (configuration not stated) the results were CDC25B-CDK2 inh -0.5 and TAR Tat displ -0.94.
